# Screening results (PubChem)
# miR-21 FLuc – miR-21 reporter, rising signal. AID 2288. HeLa miR-21 FLuc reporter, luciferase, 48 h. 340,000 tested, under 10 active. Potency, µM (doses to about 38.3 µM), for inactives: at the highest dose reporter change, positive = more light; active = well fitted rising curve with a large enough effect; inconclusive = small, poorly fitted or top-dose-only effect; inactive = no such curve, though single readings can be large or run the other way;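 note: % of control where 0% means no effect; miR-21 action dims this reporter so a rising signal means less miR-21 action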
#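 Compounds were titrated across several concentrations (up to approximately 40 uM) and incubated 48 hours with HeLa miR-21-FLuc reporter cells (miR-21 target sequence downstream of FLuc, endogenous miR-21). Readout was firefly luciferase luminescence after lytic detection reagent.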
# GLA inh pH 4.5 – inhibitors of human alpha-galactosidase A at pH 4.5. purified enzyme, 4-MU-alpha-Gal fluorescence, pH 4.5. activity change, negative = inhibition, % at 105 µM. 230,000 tested, under 10 active. AID 1467; inconclusive = small, poorly fitted or top-dose-only inhibition, or a rising curve; inactive = flat fitted curve, though single readings scatter; no compound was filed as active;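 note: 0% = full activity with enzyme and -100% = basal without enzyme; dose as in the result columns while the protocol names 77 µM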
# Rango complex inh – inhibitors of Rango-importin beta complex formation; Q14974; Rango CFP/YFP FRET sensor + importin beta, 45 min; Potency, µM (top dose mostly 92.2 µM), for inactives: at the top dose inhibition of complex formation; 340,000 tested, 0.031% active; AID 540263; active = rising FRET ratio curve, often small or poorly fitted; inconclusive = mostly compound fluorescence or quenching in the first reads; inactive = flat curves in all reads;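 note: potency is the fitted concentration of half-maximal effect; 0% = DMSO wells and 100% = buffer wells lacking importin beta; nearly all actives have a fitted effect of over 15% in size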
# Target sequence (Q14974 whole entry, looked up): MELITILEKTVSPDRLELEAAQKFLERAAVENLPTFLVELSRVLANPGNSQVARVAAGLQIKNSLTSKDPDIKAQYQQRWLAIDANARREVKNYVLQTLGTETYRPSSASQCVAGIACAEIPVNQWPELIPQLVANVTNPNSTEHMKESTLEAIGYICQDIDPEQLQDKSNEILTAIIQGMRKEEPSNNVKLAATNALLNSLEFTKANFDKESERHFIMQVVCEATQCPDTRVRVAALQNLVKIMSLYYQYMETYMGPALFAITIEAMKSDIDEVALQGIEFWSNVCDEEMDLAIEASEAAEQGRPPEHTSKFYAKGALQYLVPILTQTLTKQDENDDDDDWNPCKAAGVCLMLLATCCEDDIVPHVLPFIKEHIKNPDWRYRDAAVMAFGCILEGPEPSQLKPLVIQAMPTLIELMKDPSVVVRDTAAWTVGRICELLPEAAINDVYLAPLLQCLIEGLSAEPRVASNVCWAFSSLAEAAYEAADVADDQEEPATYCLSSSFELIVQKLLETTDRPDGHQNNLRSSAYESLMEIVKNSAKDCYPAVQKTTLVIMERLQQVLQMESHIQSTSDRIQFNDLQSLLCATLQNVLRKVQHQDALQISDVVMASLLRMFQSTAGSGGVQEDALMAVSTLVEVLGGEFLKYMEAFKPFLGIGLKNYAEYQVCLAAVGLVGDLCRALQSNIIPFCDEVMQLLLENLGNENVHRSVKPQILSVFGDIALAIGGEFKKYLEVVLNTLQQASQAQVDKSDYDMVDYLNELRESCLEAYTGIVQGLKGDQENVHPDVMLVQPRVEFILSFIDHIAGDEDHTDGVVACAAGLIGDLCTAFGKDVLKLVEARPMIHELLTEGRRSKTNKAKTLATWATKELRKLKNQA
#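 Inhibition scored from the CFP 486 nm/YFP 530 nm FRET ratio 45 min after adding 0.125 microM importin beta to 50 nM Rango biosensor preincubated 5 min with compound (room temperature, PBS with DTT, Tween-20, BSA). No-importin wells as positive control.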
# Rango dissoc inh – inhibitors of RanGTP-induced Rango-importin beta complex dissociation | O95149+P62826 | Biochemical FRET Rango-importin beta, RanGTP-induced dissociation | Potency, µM (series often up to 46.1 µM), inactives show at the top dose activity change, negative = inhibition | 340,000 tested, 0.071% active; active means falling FRET ratio curve, often poorly fitted, with flat reads before Ran was added; inconclusive means other falling curves, or compound fluorescence or quenching; inactive means flat or rising ratio curve;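 note: potency is the fitted concentration of half-maximal effect; % of control where 0% means no effect; nearly all actives have a fitted effect of over 45% in size; -100% = wells without RanGTP and RCC1; the record marks most hits as doubtful in a second field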
#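 Two FRET readings bracket the reaction: one 5 min after compound meets Rango–importin beta, another 45 min after RanGTP-RCC1 (0.6 uM Ran, 0.2 uM RCC1, 2 mM GTP) is added. Only the second defines inhibition.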
# * = called active by the depositor; ? = inconclusive; . = no result given; & = joins results of further samples. The list is partial; the hit share may differ from the screen's.
miR-21 FLuc	GLA inh pH 4.5	Rango complex inh	Rango dissoc inh	structure
.	.	-0.4%	-7%	CCOC(=O)[C@H]1[C@H]2COc3ccc(Cl)cc3[C@@H]2N2C(=O)CN(Cc3ccc(C)cc3)C(=O)[C@@]12C
-2%	.	3.6%	14%	O=C(CN1CCCCC1)Nc1nc(-c2ccc(Cl)cc2)cs1
0%	.	-2.1%	-12%	CCCN1CCC2(CC1)NC(C(=O)O)Cc1c2[nH]c2ccccc12 (configuration not stated)
-2%	3	-3.7%	11%	O=C(COc1cccc(C(F)(F)F)c1)N1CCN(c2ccccc2O)CC1
-10%	2	-3.0%	14%	CC(C)c1ccc(-n2ccnc2SCC(=O)O)cc1
-1%	-5	-1.2%	-1%	CCOC(=O)C1CCN(C(=O)c2ccc3c(c2)OCO3)CC1
-56%	.	?	?	N=c1oc2cc(O)ccc2cc1C(=O)Nc1ccc(Cl)cc1
-1%	.	-3.0%	2%	C[C@@H]1CCCCCCCCCCC1=O
-8%	-10	?	?	COc1ccc2oc(=O)c(C(=O)Oc3ccc(NC(C)=O)cc3)cc2c1
5%	.	-1.6%	0%	Cc1cccc(NC(=O)CSc2nnc(C3CC3)n2CC2CCCO2)c1 (configuration not stated)
-20%	-2	-3.1%	-7%	Cc1ccc(-c2nc(N)n(S(C)(=O)=O)n2)cc1
4%	2	1.5%	-5%	Cc1cc(C)c(C(=O)Nc2ccc(C)c(C)c2)c(CC(C)(C)C(=O)O)c1
2%	17	-1.2%	20%	Cc1ccc(OC/C(O)=C(\C#N)c2nc3ccccc3s2)cc1
-55%	2	1.5%	-4%	COc1ccc(-c2csc(/N=C/N(C)C)n2)cc1OC
1%	.	-3.6%	23%	O=C(NCCN1CCCC1)C1CCC(=O)N(CCCN2CCOCC2)C1 (configuration not stated)
.	.	-2.9%	0%	C=CCN1C(c2ccc(Br)cc2)=CS/C1=C(\C#N)c1nnc(N2CCOCC2)n1-c1ccccc1
0%	7	-1.6%	-10%	CNC(=O)CSc1nnc(SCCC(=O)O)s1
3%	0	?	-17%	O=C(Nc1ccc(Cl)c([N+](=O)[O-])c1)c1ccc2c(c1)OCCO2
2%	.	?	?	Cc1cccn2c(=O)c(C=C(C#N)C#N)c(N3CCN(C)CC3)nc12
-6%	.	-1.6%	12%	CN(CC(=O)NCc1ccccc1)S(=O)(=O)c1ccc2c(c1)CCC(=O)N2
-3%	1	3.6%	1%	CCCc1c(O)nc(SC2CC(=O)N(c3ccc(OC)cc3)C2=O)[nH]c1=O (configuration not stated)
-24%	-9	-0.2%	52%	O=S(=O)(N/N=C/c1cn(Cc2ccccc2)c2ccccc12)c1ccccc1
-25%	2	1.3%	5%	Cc1ccc(-c2cc3c(n2-c2ccc(C(=O)O)cc2)CCCC3=O)cc1
4%	3	-0.8%	1%	CCCN1C2CCCC1CC(NC(=S)Nc1cc(C)cc(C)c1)C2 (configuration not stated)
-9%	2	4.7%	-5%	CC(C)Oc1cccc(C(=O)C2CCCN(C(=O)c3csnn3)C2)c1 (configuration not stated)
-2%	.	-2.6%	-24%	COc1ccc(CCN(C)CCC(=O)Nc2cc(C)ccc2C)cc1OC
-2%	3	-5.7%	41%	O=C(COc1ccccc1C(=O)O)NC1CCCc2ccccc21 (configuration not stated)
-8%	-3	0.1%	-1%	Nc1nc(SCC(=O)NCCCN2CCOCC2)nc2sc3c(c12)CCC3
1%&-1%	.	2.1%	3%	CC(C)CCNC(=O)c1cn(C)c2ccc(S(=O)(=O)N3CCCC3)cc2c1=O
7%	-4	-0.9%	-4%	COC(=O)Nc1ccc(S(=O)(=O)N2CCN(c3ccc(F)cc3)CC2)cc1
.	.	-0.8%	-27%	Cc1ccnc(NC(=O)c2cccc(S(=O)(=O)N3CCCc4ccccc43)c2)c1
-7%	-2	0.8%	6%	Brc1ccc(C2Nc3cccc4cccc(c34)N2)s1
-4%	3	-3.1%	?	Cc1nnc(SCC(=O)NC(=O)NCc2ccco2)n1Cc1ccccc1
-1%	1	-0.7%	0%	Cc1ncoc1C(=O)N1CCCC(C(=O)c2ccc(Oc3ccccc3)cc2)C1 (configuration not stated)
23%	11	-3.3%	-17%	COc1ccccc1C1CC(c2ccc(Br)cc2)=NN1C(=O)c1cccnc1 (configuration not stated)
3%	?	-3.5%	7%	O=C(CN1CCOCC1)Nc1nc2ccc([N+](=O)[O-])cc2s1
.	.	-0.7%	-4%	O=C(N/N=C/c1ccccc1C(=O)O)c1cccc(S(=O)(=O)N2CCOCC2)c1
.	.	-2.2%	-12%	C[C@H](CO)N1C[C@H](C)[C@@H](CN(C)C)Oc2c(NS(=O)(=O)c3ccc(F)cc3)cccc2C1=O
-6%	.	-9.8%	6%	Cc1ccc(C(=O)N=c2sccn2C)cc1C
.	.	-2.0%	-3%	Cc1ccc(C(=O)N2[C@@H]3CN(C)C(=O)[C@@]2(Cc2ccccc2)[C@H]2C(=O)N(Cc4ccccc4)C(=O)[C@@H]32)cc1

# 4 records picked at random from those above:
miR-21 FLuc	GLA inh pH 4.5	Rango complex inh	Rango dissoc inh	structure
.	.	-0.8%	-27%	Cc1ccnc(NC(=O)c2cccc(S(=O)(=O)N3CCCc4ccccc43)c2)c1
-8%	-10	?	?	COc1ccc2oc(=O)c(C(=O)Oc3ccc(NC(C)=O)cc3)cc2c1
-55%	2	1.5%	-4%	COc1ccc(-c2csc(/N=C/N(C)C)n2)cc1OC
-1%	1	-0.7%	0%	Cc1ncoc1C(=O)N1CCCC(C(=O)c2ccc(Oc3ccccc3)cc2)C1 (configuration not stated)

# Other results follow:
miR-21 FLuc	GLA inh pH 4.5	Rango complex inh	Rango dissoc inh	structure
-4%	.	3.0%	1%	N#Cc1cccc(NC(=O)CCNC(=O)c2ccccc2Cl)c1
.	.	3.3%	5%	COCCN(C(=O)COC(=O)/C=C/c1ccc(OC)c(OC)c1)c1c(N)n(Cc2ccccc2)c(=O)[nH]c1=O
-5%	-4	-0.4%	-1%	Cc1ccc2nc3n(c(=O)c2c1)CCC3
-2%	2	-2.1%	2%	COc1ccc(Cl)cc1Nc1nc(C)cc(=O)[nH]1
0%	-19	0.6%	-6%	COc1ccc(C(=O)CSc2nnc(CNc3nc(-c4ccccc4)cs3)n2C)cc1
-6%	.	0.6%	6%	Cc1ccccc1C(=O)N1N=C(c2ccc(NS(C)(=O)=O)cc2)CC1c1cccs1 (configuration not stated)
13%	.	-3.2%	0%	CCOc1ccc(C(C(=O)NCC2CCCO2)N(C(=O)c2snc(C(N)=O)c2N)c2ccccc2F)cc1 (configuration not stated)
-12%	-5	-0.5%	28%	Cc1ccc(C2CCN(C(=S)NC3CCCCC3)C2)cc1 (configuration not stated)
0%	6	4.4%	-2%	Cn1c(CCc2nc3ccccc3[nH]2)n[nH]c1=S
-58%	6	-4.9%	0%	Cc1ccc(-n2cnc3cc(NCc4cccs4)ccc32)cc1
-8%	.	2.4%	4%	COCC1CCN(C(=O)c2cc(COc3ccc4c(c3)CCCC4)on2)C1 (configuration not stated)
-4%	-22	6.5%	0%	Cc1cccc(N(Cc2cc3ccccc3[nH]c2=O)S(=O)(=O)c2ccccc2)c1
1%	4	-3.6%	1%	O=C(NCC(c1cccs1)N1CCOCC1)c1ccccc1NS(=O)(=O)c1cccc([N+](=O)[O-])c1 (configuration not stated)
1%	8	-9.2%	-15%	Cc1ccc(/C=C/C(=O)NCC2COc3ccccc3O2)o1 (configuration not stated)
-37%	-4	0.7%	0%	Cc1cccc(-n2ncc3c(NCCCO)ncnc32)c1
-6%	-2	3.9%	-6%	Cc1ccc(NC(=O)CSc2nc(O)c(Cc3ccccc3)c(=O)n2-c2ccccc2)cc1
.	.	-3.2%	8%	CC(=O)c1ccc(OCC(=O)Nc2c(C)nn(-c3ccccc3)c2C)cc1
-1%	-13	1.4%	17%	c1ccc2c(c1)C(=NCC1CCCO1)NC2=NCC1CCCO1 (configuration not stated)
-3%	7	-1.2%	-1%	Cc1ccc(CNS(=O)(=O)NCc2ccccc2)cc1
.	.	1.9%	1%	CC(C)(C)C1CCC(C(=O)Nc2ccccc2N2CCOCC2)CC1 (configuration not stated)

# Exported bar-delimited: five of the compounds above
mol | miR-21 FLuc | GLA inh pH 4.5 | Rango complex inh | Rango dissoc inh
Cc1cccc(N(Cc2cc3ccccc3[nH]c2=O)S(=O)(=O)c2ccccc2)c1 | -4% | -22 | 6.5% | 0%
O=C(NCC(c1cccs1)N1CCOCC1)c1ccccc1NS(=O)(=O)c1cccc([N+](=O)[O-])c1 (configuration not stated) | 1% | 4 | -3.6% | 1%
Cc1ccc(/C=C/C(=O)NCC2COc3ccccc3O2)o1 (configuration not stated) | 1% | 8 | -9.2% | -15%
Cc1cccc(-n2ncc3c(NCCCO)ncnc32)c1 | -37% | -4 | 0.7% | 0%
Cc1ccc(NC(=O)CSc2nc(O)c(Cc3ccccc3)c(=O)n2-c2ccccc2)cc1 | -6% | -2 | 3.9% | -6%

# (continued)
miR-21 FLuc	GLA inh pH 4.5	Rango complex inh	Rango dissoc inh	structure
.	.	-0.1%	-11%	COc1ccc(C(=O)OCC(=O)c2ccc[nH]2)cc1
-10%	.	4.1%	-8%	COc1ccc(CCCC(=O)NCCc2ccccc2)cc1
.	.	1.6%	18%	CC(Oc1ccccc1F)C(=O)NNC(=O)c1cccc(S(=O)(=O)N2CCN(C)CC2)c1 (configuration not stated)
1%	3	-1.1%	4%	Cc1oc2ccccc2c1CC(=O)NCCCN(C)C
-14%	2	7.3%	13%	O=C(OCCOc1ccccc1Cl)c1ccc(-n2cnnn2)cc1
2%	6&-1	.	.	CN(C)CC/C=C1/c2ccccc2COc2ccccc21
1%	-4	0.8%	-7%	O=C(NCCC1=CCCCC1)C(=O)NCCc1ccc(Cl)cc1
-7%	-3	0.7%	-5%	O=C(c1ccc(C#Cc2ccccc2)o1)N1CCN(c2ccccn2)CC1
2%	?	-6.7%	-17%	COC(=O)C1=CN(CCCN2CCCC2=O)C=C(C(=O)OC)C1c1cccs1
-2%	.	-0.1%	12%	CC(CC(=O)Nc1ccccc1)NCCCN1CCCC1=O (configuration not stated)
3%	-5	-1.0%	3%	Cc1ccc(C2(C)NC(=O)N(CC(=O)NC(=O)NCCC(C)C)C2=O)cc1 (configuration not stated)
-2%	12	-0.1%	-10%	Cc1cc(C)cc(NC(=O)C2CCCN2C(=O)NC2CCCCC2)c1 (configuration not stated)
-34%	3	-0.8%	1%	C/C(=N\Nc1cccc(C(=O)O)c1)c1cc2ccccc2o1
-1%	-17	0.9%	-13%	Cc1onc(-c2c(Cl)cccc2Cl)c1C(=O)OCC(=O)c1ccccc1
5%	-10	-0.7%	2%	COC(=O)COc1ccc2c(=O)c(-c3ccccc3)coc2c1
-4%	-9	-0.9%	-6%	COc1ccc(NC(=O)CSc2nnc(C3CC3)n2N)cc1
-1%	.	-1.9%	12%	NS(=O)(=O)c1cccc(NC(=O)CC23CC4CC(C2)CC(CC(=O)Nc2cccc(S(N)(=O)=O)c2)(C4)C3)c1
-4%	-12	-1.4%	7%	O=Cc1ccc(OCC(=O)NC(=O)NC2CCCCC2)cc1
.	.	0.1%	-9%	CC(C)NC(=O)N(C)C[C@H]1Oc2ccc(NC(=O)NC3CCCCC3)cc2C(=O)N([C@H](C)CO)C[C@@H]1C
1%	.	-1.0%	10%	Cn1c(SCc2ccc([N+](=O)[O-])cc2)nnc1-c1ccncc1
3%	-6	3.4%	6%	COC(=O)c1sc(S(=O)(=O)N2CCN(CCO)CC2)c(C(=O)OC)c1C
-1%	.	-3.0%	-10%	O=C1CSC(=S)N1
5%	5	3.3%	1%	CCOC(=O)CCC(=O)Nc1ccc([N+](=O)[O-])cc1C
-2%&2%	.	-3.7%	-20%	Cc1cc2[nH]c(=O)c(=O)[nH]c2cc1S(=O)(=O)N1CCN(c2ccccc2)CC1
.	.	6.1%	6%	CCOC(=O)c1sc(=S)[nH]c1C
0%	4	-5.0%	-1%	O=c1[nH]c2ccc(S(=O)(=O)N3CCN(Cc4ccccc4)CC3)cc2[nH]c1=O
-37%	-7	3.9%	3%	COC(=O)N/N=C/c1cccc(OCCSc2ccc(Cl)cc2)c1
